Source: PubChem BioAssay
KCNQ2 pot: potentiators of rat KCNQ2 potassium channel; CHO-K1 KCNQ2, FluxOR thallium flux fluorescence; active compounds read high; B-score at 10 µM; hit rate 0.54% among 310,000; AID 2239, 2010;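 active = fluorescence ratio B-score at least 3 SD of library B-scores, with initial fluorescence B-score within 3 SD, cut at about 5.3 in these data; same plate scores as AID 2156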;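 also: B-score of peak minus minimum over baseline fluorescence ratio after K+ and Tl+ stimulus; positive B-score means potentiation of KCNQ2 with more thallium influx and brighter signal; only the inactives scoring about 0 or higher are listed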
Target sequence (O88943 whole entry, looked up): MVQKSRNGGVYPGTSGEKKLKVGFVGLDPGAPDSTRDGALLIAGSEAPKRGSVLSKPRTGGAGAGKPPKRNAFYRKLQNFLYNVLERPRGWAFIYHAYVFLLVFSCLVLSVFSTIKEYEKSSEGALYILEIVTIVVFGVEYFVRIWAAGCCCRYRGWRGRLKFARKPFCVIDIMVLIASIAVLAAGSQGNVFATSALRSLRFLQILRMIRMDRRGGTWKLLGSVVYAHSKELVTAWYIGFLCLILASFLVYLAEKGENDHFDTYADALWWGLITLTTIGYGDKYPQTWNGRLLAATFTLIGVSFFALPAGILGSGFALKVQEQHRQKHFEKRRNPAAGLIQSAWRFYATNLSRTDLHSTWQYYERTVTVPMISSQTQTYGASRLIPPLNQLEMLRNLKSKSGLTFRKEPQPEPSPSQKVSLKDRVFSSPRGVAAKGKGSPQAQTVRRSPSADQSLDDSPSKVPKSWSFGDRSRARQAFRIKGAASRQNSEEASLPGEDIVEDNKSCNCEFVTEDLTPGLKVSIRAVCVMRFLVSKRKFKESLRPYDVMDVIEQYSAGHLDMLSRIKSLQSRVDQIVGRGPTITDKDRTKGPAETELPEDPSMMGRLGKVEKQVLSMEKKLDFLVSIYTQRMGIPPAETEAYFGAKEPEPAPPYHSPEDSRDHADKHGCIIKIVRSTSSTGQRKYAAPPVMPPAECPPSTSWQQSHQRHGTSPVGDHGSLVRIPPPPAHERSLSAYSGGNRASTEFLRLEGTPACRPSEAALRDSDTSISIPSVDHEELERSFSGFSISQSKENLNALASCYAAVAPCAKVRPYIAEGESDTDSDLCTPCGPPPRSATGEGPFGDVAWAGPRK
KCNQ2 pot baseline: second read-out of KCNQ2 pot, no call of its own (marks repeat the call); B-score; compound at 10 µM; measured here: initial fluorescence intensity artifact check;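 brightness before thallium and not channel activity; 0 = typical well and far values either way flag optical interference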
Numbers without * were called inactive. An excerpt. The share of hits here may be higher or lower than overall.

Molecule | KCNQ2 pot | KCNQ2 pot baseline
COc1ccc(-c2ccc(-c3noc(-c4ccccc4OC)n3)c(OC)n2)cc1 | 0.02 | 0.11
COc1cc(C2SCC(=O)N2CCN2CCCCC2)ccc1O (stereo unspecified) | 1.81 | 0.33
CCc1nnc(NC(=O)c2ccc(COc3ccccc3C)o2)s1 | 0.17 | -0.2
COCOc1ccc(-c2oc3c(C/C=C(\C)CCC=C(C)C)ccc(O)c3c(=O)c2OCOC)c(OCOC)c1 | 0.83 | -0.07
O=C(Nc1ccccc1C(=O)O)c1ccc(Br)o1 | 0.99 | -0.85
CC(C)CC(=O)N1CCN(Cc2ccccc2Br)CC1 | 0.4 | -1.21
O=C(Nc1ccc(C(=O)N2CCOCC2)cc1)c1cccc(Br)c1 | 0.64 | -0.37
O=C(CCS(=O)(=O)c1ccccc1)NC1CCCCC1 | 0.47 | 0.47
COc1ccc(N2CC(C(=O)Nc3ccncc3)CC2=O)cc1 (stereo unspecified) | 0.85 | 1.46
COc1ccc(-c2nc3nc(SC)nn3cc2C)cc1F | 0.83 | -0.02
CCOC(=O)CSc1nnc(NC(=O)c2ccc3c(c2)OCO3)s1 | 0.54 | -1.97
COc1ccccc1N1CCN(c2nc(N)c(C#N)c(CC#N)c2C#N)CC1 | 3.18 | 0.08
O=c1[nH]n2cc(-n3cc([N+](=O)[O-])cn3)cnc2c1Br | 0.11 | -1.89
CC(C)=CCC1=C(OCC(=O)O)C(=O)c2ccccc2C1=O | 1.59 | 1.24
Cc1ccccc1C(=O)Oc1cc(N)n(S(=O)(=O)c2ccccc2)n1 | 0.04 | -1.58
CC1=CC(=O)CC2C1(C)CCC(C)C2(C)CCC(C)CC(=O)O (stereo unspecified) | 1.2 | -0.07
O=C(NC1CC1)c1nc(Cn2cc([N+](=O)[O-])cn2)no1 | 2 | -2.19
CCOC(=O)COc1ccc(S(=O)(=O)N2CCN(c3ccccc3F)CC2)cc1 | 0.38 | 1.82
CC(=O)NC1C(=O)Nc2c(C)cc(C)cc21 (stereo unspecified) | 0.37 | -2.64
Cc1cc(N=Nc2ccc(Cl)cc2)cc(CN2CCCC2)c1O | 0.01 | -1.23
CCCCCN(C(=O)CCC(=O)OCCOc1ccc(OC)cc1)c1c(N)n(CCCC)c(=O)[nH]c1=O | 1.38 | -1.98
CCN(CC(=O)Nc1cc(Cl)ccc1C)C(=O)C1CC(=O)N(Cc2ccccc2)C1 (stereo unspecified) | 0.15 | -2.97
CCCCn1c(/N=C/c2ccc3c(c2)OCO3)nc2ccccc21 | 1.64 | 0.3
CCOc1ccc(-c2nc(-c3ccccc3C)no2)cc1 | 0.25 | 0.9
COc1ccc(C(=O)c2c3ccc(C(F)(F)F)cc3[n+]([O-])n2CCCC(N)=O)cc1 | 2.94 | 1.37
CCOc1ccc(N(CC(=O)NCc2ccc(F)cc2)C(=O)c2ccco2)cc1 | 0.14 | -1.89
CSc1nnc(-c2sc3cc(C(F)(F)F)cnc3c2-c2cccnc2)n1C | 1.19 | -0.11
Cc1cc(NC(=O)c2ccccc2)ncc1NC(=O)c1ccco1 | 1.87 | -0.07
Cc1ccc(S(=O)(=O)N2c3ccccc3-c3c(ssc3=S)C2(C)C)cc1 | 0.1 | -0.73
CC(=O)Nc1cc(C(=O)N2CCN(C)CC2)ccc1Sc1ccc(C)cc1 | 1.59 | 0.22
COc1ccc(CC(=O)NCC2CCCN(Cc3cccc(C(F)(F)F)c3)C2)cc1 (stereo unspecified) | 1.7 | 0.63
CCc1ccc2oc(-c3ccc(OC)cc3)cc(=Nc3c(C)n(C)n(-c4ccccc4)c3=O)c2c1 | 1.13 | -1.02
CCOC(=O)C1CCN(C(=O)CN2C(=O)c3cccnc3Oc3ccccc32)CC1 | 0.1 | -0.39
CCCCNC(=O)COC(=O)c1cc(C)nc2ccccc12 | 0.21 | 1.42
Cc1ccc2c(c1)C(=C(C#N)C#N)C(=O)N2CCN1CCCCC1 | 0.72 | 0.01
O=C(Nc1nnc(CSCc2ccccc2F)s1)c1cccc([N+](=O)[O-])c1 | 0.06 | -0.74
CC(C)NC(=O)C(=O)Nc1cc2c3c(c1)CCC(=O)N3CCC2 | 0.45 | 0.4
COC(=O)c1ccc(NC(=O)CCCCCn2nnc3ccccc3c2=O)cc1 | 0.33 | -1.11
CCC(C(=O)NC1CCCCC1)n1c2ccccc2c2nc(=O)cc(C)n21 (stereo unspecified) | 1.15 | 2.03
NC(=O)c1cc(-c2ccccc2)sc1NC(=O)Cc1ccc(S(=O)(=O)N2CCOCC2)s1 | 1.17 | -1.71

A portion of the results above, for reference:
Molecule | KCNQ2 pot | KCNQ2 pot baseline
COc1ccc(CC(=O)NCC2CCCN(Cc3cccc(C(F)(F)F)c3)C2)cc1 (stereo unspecified) | 1.7 | 0.63
CCc1ccc2oc(-c3ccc(OC)cc3)cc(=Nc3c(C)n(C)n(-c4ccccc4)c3=O)c2c1 | 1.13 | -1.02
CCOC(=O)C1CCN(C(=O)CN2C(=O)c3cccnc3Oc3ccccc32)CC1 | 0.1 | -0.39

(cont.)
Molecule | KCNQ2 pot | KCNQ2 pot baseline
O=C(O)/C=C/C(=O)c1ccc(O)cc1 | 0.98 | 0.11
Cc1cc(=O)[nH]c(-c2ccc(Cl)cc2)n1 | 0.02 | 0.6
COc1ccc(Cl)cc1NC(=O)c1nnn(CC(=O)Nc2ccc3c(c2)OCO3)c1N | 0.33 | 1.37
O=C(N/N=C/c1ccco1)C1COc2ccccc2O1 (stereo unspecified) | 1.64 | -0.38
CC1CN(C(=O)C(C)Sc2nc3ccccc3s2)CC(C)O1 (stereo unspecified) | 0.28 | -0.55
Nc1nonc1-n1nnc(C(=O)N/N=C/c2c(F)cccc2Cl)c1-c1ccc2c(c1)OCO2 | 0.03 | 1
COc1cccc(NC(=S)N(CCN(C)C)C(C)c2ccco2)c1 (stereo unspecified) | 0.09 | -0.58
O=C(c1ccc([N+](=O)[O-])cc1)N1CCN(C(=O)c2cccs2)CC1 | 0.02 | 1.12
CN(C)c1ccc(CNC(=O)C2CCN(S(=O)(=O)c3ccc4c(c3)CCC(=O)N4)CC2)cc1 | 0.43 | 1.02
CCCCCc1c(C)nc(Nc2ccc(F)cc2)[nH]c1=O | 2.03 | 0.65
Cc1nc(N)sc1-c1csc(Nc2ccccc2)n1 | 1.47 | 0.39
CC(=O)C(Sc1nc(N2CCOCC2)nc(N2CCOCC2)n1)C(=O)Nc1ccccc1 (stereo unspecified) | 6.05* | -0.19*
CCOC(=O)c1sc(NNC(=O)c2ccc(C)cc2)nc1C | 1.15 | -1.18
O=C(Nc1cccc(/C=C/c2nc3ccccc3c(=O)[nH]2)c1)c1ccccc1Cl | 1.19 | -0.77
O=C(CCS(=O)(=O)c1ccc(Br)cc1)NCc1ccco1 | 0.01 | -2.34
O=C(OCC(=O)N1CCN(c2ccccc2)CC1)c1ccc[n+]([O-])c1 | 0.69 | -0.41
CCC(=O)Nc1ccc(C(=O)Nc2cccc(OC)c2)cc1 | 0.02 | -1.04
COc1cccc(NC(=O)CSc2nc3c(c(-c4ccco4)c2C#N)CCCC3)c1 | 0.79 | 1.21
Fc1ccc2nc(Nc3nc4c(F)cccc4s3)sc2c1 | 14.5* | 2.02*
Cc1c(C(=O)N2CCOCC2)c(S(=O)(=O)Nc2ccc(C(C)C)cc2)c(C)n1C | 0.47 | -0.72
CNC(=S)Nc1cc(C)ccc1OC(F)F | 0.03 | -1.72
CCOC(=O)C1CCN(C(=O)Nc2ccc3oc(C)nc3c2)CC1 | 0.02 | 0.03
Cc1ccc(S(=O)(=O)NN2C(=O)/C(=C/c3cccs3)SC2=S)cc1 | 3.96 | -1
O=C(O)c1ccc(Nc2nc3ccccc3nc2NS(=O)(=O)c2ccc(F)cc2)cc1 | 1.86 | 0.05
NC(=O)c1cc(S(=O)(=O)NCc2ccc(F)cc2)cs1 | 0.33 | -1.39
COCCN1CCN(C(=O)C2CCC(=O)N(Cc3ccc(Cl)cc3)C2)CC1 (stereo unspecified) | 0.08 | 0.91
Cc1nc(Sc2cccn2C)c(C(F)(F)F)c(=O)[nH]1 | 1.53 | 0.1
CSc1nc(N2CCOCC2)c2ccccc2n1 | 0.07 | -1.86
O=C(Nc1cccc(Br)c1)c1ccc(OC2CSC2)cc1 | 0.08 | -0.72
O=C(NNc1c([N+](=O)[O-])cc(C(F)(F)F)cc1[N+](=O)[O-])c1ccco1 | 0.1 | 0.02
O=C(CSc1nnc(-c2ccccc2)n1-c1ccc(Cl)cc1)N/N=C/c1ccco1 | 0.99 | -0.37
O=C(N/N=C/c1ccc2c(c1)OCO2)c1cc(-c2ccncc2)nc2ccccc12 | 1.05 | -0.04
CCN1CCCC1CNC(=O)C(=O)Nc1ccccc1OC (stereo unspecified) | 0.21 | -1.35
O=C(O)c1oc2ccccc2c1CSc1ccccn1 | 1.11 | 0.02
Cc1cc(S(=O)(=O)N2CCN(c3ccccc3F)CC2)ccc1-n1cnnn1 | 0.31 | -0.93
CCOc1ccc(NC(=O)CN(C)c2nnnn2-c2ccccc2)cc1OCC | 1.21 | 1.08
COCCc1nc2ccc(C(=O)NCc3cccc(-n4cccn4)c3)cc2o1 | 0.04 | -0.87
COC(=O)[C@H]1[C@@H](C)N(Cc2ccccc2)C(=O)N[C@H]1c1cccc(C(F)(F)F)c1 | 0.54 | 0.91
COc1ccc(CNC(=O)COC(=O)C2CCN(S(=O)(=O)c3ccccc3C(F)(F)F)CC2)cc1 | 0.13 | 1.42
COc1ccc(S(=O)(=O)N2CCOCC2)cc1NC(=O)CSc1ncnc2ccccc12 | 0.38 | -0.1

Random excerpt: 3 compounds from above
Molecule | KCNQ2 pot | KCNQ2 pot baseline
COCCc1nc2ccc(C(=O)NCc3cccc(-n4cccn4)c3)cc2o1 | 0.04 | -0.87
O=C(CSc1nnc(-c2ccccc2)n1-c1ccc(Cl)cc1)N/N=C/c1ccco1 | 0.99 | -0.37
Cc1cc(S(=O)(=O)N2CCN(c3ccccc3F)CC2)ccc1-n1cnnn1 | 0.31 | -0.93

The listing continues.
Molecule | KCNQ2 pot | KCNQ2 pot baseline
CC(C)c1cc(C(N)=O)c(NC(=O)c2cccc(COc3ccc(Cl)cc3)c2)s1 | 0.18 | 0.4
Cc1cc(/C=C2/C(=N)N3C(=NC2=O)SN=C3S(C)(=O)=O)c(C)n1-c1ccc(F)cc1 | 3.35 | 0.92
COc1ccc(NC(=S)N2CCc3ccccc3C2)cc1 | 0.41 | 0.61
Cc1cccn2c(=O)c3cc(C(=O)N4CCCCC4)sc3nc12 | 1.68 | -0.07
O=C(C1=NNC2C(=O)N(c3ccccc3)C(=O)C12)c1nc(Cl)ccc1Cl (stereo unspecified) | 1.24 | 0.41
Cc1cccc(N=C2NC(=O)/C(=C/c3cccn3C)S2)c1C | 1.19 | 0.41
O=C(NCCc1ccccn1)C1CCN(S(=O)(=O)c2ccc3ccccc3c2)CC1 | 0.06 | -0.04
Cc1ccc(NC(=O)CN(C)S(=O)(=O)c2cccc3nsnc23)cc1 | 0.19 | -0.2
CCOC(=O)N1CCC(NS(=O)(=O)c2cc(Br)cnc2N)CC1 | 0.7 | -0.35
O=C(Nc1nnc(-c2ccc(Cl)cc2)o1)c1cccc(N2C(=O)CCC2=O)c1 | 0.33 | 0.36
CCN(C(=S)NCc1ccccc1)c1ccccc1 | 0.54 | -1.12
CSc1nc2sc(-c3ccccc3)cc2c(=O)n1N | 0.48 | -1.7
Cc1ccc(NC(=O)C(C)SCc2nc3sc4c(c3c(=O)[nH]2)CCCC4)nc1 (stereo unspecified) | 2.13 | 0.61
CC1(C)CC(=O)C=C(Nc2ccc(Br)cc2F)C1 | 0.14 | 2.94
CCOC(=O)N1CCN(C(=O)c2c(-c3ccccc3)noc2C)CC1 | 0.37 | -0.81
CC(C)(C#N)NC(=O)c1ccco1 | 0.1 | 0.33
CCOc1cc(-c2noc(-c3cccnc3)n2)ccc1OC | 0.31 | -1.09
COc1ccccc1C(=O)COC(=O)CNS(=O)(=O)c1ccc(C)cc1 | 0.46 | -1.61
CSc1ccc(NC(=O)N2CCC(C(=O)c3ccc(F)cc3)CC2)cc1 | 0.26 | 0.12
CC(=O)Nc1nc(SCCCc2ccccc2)n[nH]1 | 0.01 | -0.68
COc1ccc2[nH]cc(CCNC(=O)Cc3ccc(Cl)cc3)c2c1 | 0.36 | -1.36
O=c1c2ccccc2nc(-c2ccccc2)n1O | 0.66 | 1.04
CC(C)NC(=O)Cn1c(=O)cnc2ccccc21 | 0.75 | -2.18
Cc1cc(NS(=O)(=O)c2ccc(NC(=O)/C=C/c3ccccc3Cl)cc2)no1 | 0.04 | -1.35
COCCn1c(SCC(=O)Nc2nnc(C)s2)nnc1-c1ccco1 | 0.33 | -0.01
COC(=O)CSc1nnc(-c2ccc(S(=O)(=O)N3CCCC3)cc2)n1C | 0.05 | 0.44
CN(CC(=O)Nc1ccc(F)cc1)C(=O)COC(=O)CSc1ccc(F)cc1 | 3.48 | -0.96
CN(Cc1cccc(F)c1)C(=O)c1cccc(S(=O)(=O)N2CCN(Cc3ccccc3)CC2)c1 | 0.53 | 0
O=C1Nc2ccccc2C(=O)C1(Cl)Cc1ccccc1 (stereo unspecified) | 0.5 | -0.09
CCCn1nnnc1-c1cc(Cl)cc(Cl)c1 | 0.95 | 0.16
CCCCOc1ccc(S(=O)(=O)Nc2ccc(NC(C)=O)cc2)cc1 | 2.29 | 0.16
CCCS(=O)(=O)N1CCCC(C(=O)NCCN2CCC(Cc3ccccc3)CC2)C1 (stereo unspecified) | 1.33 | 0.01
NS(=O)(=O)c1ccc(CCNC(=O)CSc2nc3ccccc3c(=O)n2CCC(=O)N2CCCCC2)cc1 | 1.97 | 0.28
CCC(=O)c1ccccc1OCC(=O)Nc1c(C)cccc1C | 0.19 | -0.97
O=C(COC(=O)c1ccc(O)cc1)NCCC1=CCCCC1 | 0.73 | 0.9
CCOC(=O)N1CCN(C(=O)Cn2ncc3ccccc32)CC1 | 0.02 | -0.17
O=C(CNC(=O)c1cccs1)N/N=C/c1ccco1 | 0.88 | 0.01
CC(C)(C)CN1C(=O)C(=O)NC[C@@H]1Cc1ccc(O)cc1 | 1.23 | 0
COc1ccc(C(=O)NC(=S)NC(C)c2ccccc2)cc1 (stereo unspecified) | 0.19 | -1.61
